CDC25B-CDK2 inh: human CDC25B-CDK2/CyclinA binding inhibition; P30305+P24941; HTRF CDC25B-CDK2/CyclinA binding, anti-His/anti-Flag; stronger effect = higher value; z-score (no concentration beside the values); 94,000 tested, 0.72% active;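 further: score is relative to mean and SD of negative controls; strong numbers were not always called active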
TAR Tat displ: HIV-1 TAR-Tat binding disruption; HIV-1 TAR RNA, Tat peptide displacement FRET; stronger effect = higher value; 100,000 tested, 0.6% active; z-score (test concentration not listed);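 further: score is relative to mean and SD of negative controls; some compounds called inactive have numbers as strong as hits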
An asterisk follows results filed as active; . = not tested or not shown.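 How the source made its calls: active means z-score from 3 up in half or more of its runs; inactive means the rest.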

SMILES | CDC25B-CDK2 inh | TAR Tat displ
CCCCOC(=O)C(C)Oc1ccc2c3c(c(=O)oc2c1C)CCC3 (stereo not drawn) | -0.65 | .
O=C(O)CNS(=O)(=O)c1ccc2c(c1)OCCO2 | -0.48 | .
CCCc1nnc(N2C(=O)c3oc4ccc(F)cc4c(=O)c3C2c2ccc(F)cc2)s1 (stereo not drawn) | -1.91 | 1.26
Cc1cc(-c2ccc(C)c(S(=O)(=O)N3CCCN(Cc4ccc(F)cc4)C3)c2)on1 | . | -1.04
COc1ccc(Cl)cc1-n1nnc(-c2nc(-c3ccccc3F)no2)c1N | . | 0.9
O=C(Cn1nnc2sc3c(c2c1=O)CCCC3)OCc1ccccc1 | -0.62 | -0.53
O=S(=O)(O)c1cc[n+]([O-])cc1 | 4.4* | .
Cc1nnc(NCc2ccc(Cl)cc2)c2c1nnn2Cc1ccc(F)cc1 | -1.04 | -0.63
Cc1cc(C)cc(-n2c(SCC(=O)Nc3nccs3)nc3c(c2=O)SC(C)C3)c1 (stereo not drawn) | -1.79 | 0.03
CCOc1nc(-c2ccc(Cl)cc2)ccc1-c1noc(C(C)C)n1 | 0.1 | 0.42
Cc1ccc(-c2c(C(F)(F)F)nn3c(NCCN4CCOCC4)cc(C)nc23)cc1 | -0.27 | -0.09
CCCCN(Cc1ccco1)S(=O)(=O)c1c[nH]c(C(=O)OC)c1 | . | 1.57
CSc1nc2c(c(Nc3ccc(O)c(C(=O)O)c3)n1)CCC2 | -2.24 | 17.9*
CC(C)NC(=O)NCc1cccn1Cc1ccc(F)cc1 | . | 1.34
Cn1ncc2c(=O)sc(NC(=O)c3ccccc3)nc21 | -1.12 | .
CCCCc1c(O)nc(SCCN(CC)CC)n(-c2ccccc2)c1=O | -0.04 | -0.51
CCOC(=O)c1c(NC(=O)c2cccc(OC)c2)sc(C(C)=O)c1C | -1.63 | .
COc1ccc(Cc2nnc(-c3cccc(F)c3)o2)cc1OC | 2.17 | 0.65
CC1CCCCC1NC(=O)CN(C)S(=O)(=O)c1ccc2c(c1)CC(C)N2C(=O)C1CC1 (stereo not drawn) | . | 0.3
Cc1ccc(CNC(=O)CCS(=O)(=O)c2ccc3c(c2)CC(C)N3C(=O)C2CC2)o1 (stereo not drawn) | . | -0.13
CC(=O)N1N=C(c2ccccc2Br)OC1c1ccc(N(C)C)cc1 (stereo not drawn) | . | 1.9
CCN(CC)CCN(C(=O)c1ccco1)c1nc2ccc(F)cc2s1 | . | 1.14
Cc1cc(C(F)(F)F)n2nc(-c3ccc(Br)cc3)cc2n1 | 2.33 | 0.78
COc1ccc(Cc2nc(S(=O)(=O)c3ccc(C)cc3)c(N3CCOCC3)o2)cc1 | -1.23 | -0.04
Cc1cccc(Nc2nc(N3CCCC3)nc3c2cnn3C)c1 | . | -0.39

Filtered by structure: the entries above with bromine.
SMILES | CDC25B-CDK2 inh | TAR Tat displ
CC(=O)N1N=C(c2ccccc2Br)OC1c1ccc(N(C)C)cc1 (stereo not drawn) | . | 1.9
Cc1cc(C(F)(F)F)n2nc(-c3ccc(Br)cc3)cc2n1 | 2.33 | 0.78

Remaining list, next part
SMILES | CDC25B-CDK2 inh | TAR Tat displ
CC1CC(C)CN(S(=O)(=O)c2ccc3c(c2)oc(=O)n3CC(=O)NCc2ccco2)C1 (stereo not drawn) | 0.13 | 1.32
Cc1ccc(S(=O)(=O)NCc2ccc(-c3nn4c(C)nnc4s3)cc2)cc1 | . | 1.48
O=C(CSC1=NS(=O)(=O)c2ccccc2N1)NC1CCCCC1 | . | 0.72
COc1ccc(-c2noc(-c3ccc(OC)cc3OC)n2)cc1 | -2.11 | 3.09
O=C(Nc1ccc(S(=O)(=O)Nc2ncccn2)cc1)c1nn(-c2ccc(F)cc2)ccc1=O | -0.01 | -0.41
CCOC(=O)Cc1c(C(=O)OCC)c(C)cn1C | 1.03 | 0.75
CCCCc1ccc(-c2nnc(-c3ccc(CCCC)cc3)nn2)cc1 | -1.41 | .
CC(C)NC(=O)CSc1nnc(-c2cc3ccccc3n2C)o1 | -2.67 | 0.75
CCCN1C(=O)c2cc3sccc3n2CC1(C)C(=O)NC1CCCCC1C (stereo not drawn) | -2.35 | 2.13
CCOC(=O)c1nc(Nc2cc(OC)cc(OC)c2)c2c(C)noc2n1 | . | 1.49
Cc1ccc(NC2SC(=O)NC2=O)cc1Cl (stereo not drawn) | -0.19 | 1.02
CCOCCOC(=O)C1=C(C)NC2=C(C(=O)CCC2)C1c1cccc(Cl)c1 (stereo not drawn) | -1.73 | -0.8
CSc1sc(-c2ccn[nH]2)c(-c2ccco2)c1C#N | -1.12 | .
O=C1c2ccccc2C(=O)C1(NCc1ccc2c(c1)OCO2)c1ccccc1 | . | 0.91
Cc1nn(CCCC(=O)NCc2ccccn2)c(=O)c2c1sc1ccccc12 | -1.14 | 3.12
CCCCN(C)C(=O)C1CCCN(S(=O)(=O)c2c(C)noc2/C=C/c2cccs2)C1 (stereo not drawn) | -0.97 | -0.07
O=C(CN1C(=O)CCc2cc(Br)ccc21)Nc1ccc2c(c1)OCO2 | . | 0.92
Cc1ccc2nc(-n3nc(C)c4c3NC(=O)CC4c3cccs3)sc2c1 (stereo not drawn) | . | 1.56
O=S1(=O)N=C(SCc2ccc(Br)cc2F)Nc2ccccc21 | . | 0.91
CC1C(=O)N2CCCc3cc(S(=O)(=O)NCCC4=CCCCC4)cc1c32 (stereo not drawn) | . | 1.54
COc1ccc(OC)c(NS(=O)(=O)c2c(C)nc3scc(C)n3c2=O)c1 | -1.7 | -0.56
CCn1nc(C)cc1-c1nnc(SCC(=O)c2cccc([N+](=O)[O-])c2)o1 | -2.02 | .
C=CCSc1ncc(CO)n1Cc1ccccc1 | . | 0.72
COc1ccc(OC)c(CCNc2ccc3nncn3n2)c1 | -0.56 | 0.09
COc1ccc(C2Nc3ccccc3NC3=C2C(=O)CC(c2cccs2)C3)c(OC)c1OC (stereo not drawn) | 1.63 | .

Further entries:
SMILES | CDC25B-CDK2 inh | TAR Tat displ
CCc1nnc(SCc2nc(-c3ccccc3F)oc2C)c2cc3oc(C)cc3n12 | . | -7.97
O=C(Nc1nccs1)c1ccc(N2C(=O)CCS2(=O)=O)cc1 | -1.53 | 1.54
COC(=O)c1cnc(N/N=C\c2cccc(Cl)c2)nc1C(F)(F)F | -1.92 | .
O=C1c2ccccc2C(=O)C1(Nc1ccc(Br)cc1F)c1ccccc1 | . | 0.35
CCc1nnc(NC(=O)C(CC)CC)s1 | -0.26 | 0.1
O=C(NCc1cccnc1)c1ccc(CN2C(=O)CSc3ncccc32)cc1 | . | 1.55
Cc1ccc(-c2onc(C)c2C)cc1S(=O)(=O)NC1CCC(C)CC1 (stereo not drawn) | . | 1.09
COc1ccc(-c2nc3scc(CCNS(=O)(=O)c4cccs4)n3n2)cc1 | . | 0.54
CCc1nnc2c(NC3CCN(Cc4ccccc4)CC3)nc3ccccc3n12 | . | -1.24
O=C(NCc1cccc(F)c1)Nc1c[nH]c(=O)[nH]c1=O | . | 1.89
Cc1cc(N2CCOCC2)n2nc(Cc3ccc(Cl)cc3)nc2n1 | -1.45 | 2.42
CCN1CCN(c2cc(NCC(C)C)c3c4c(onc24)-c2ccccc2C3=O)CC1 | -3.86 | -5.34
COc1ccc(Nc2cc(-c3ccccc3)nc(SC)n2)c(OC)c1 | 0.37 | -0.52
CCn1nnc(NCc2ccc(OCc3ccc(C)cc3)cc2)n1 | . | 0.19
O=C(CCc1ccccc1)N1CCN(c2nc3cc(Br)ccc3n3cccc23)CC1 | -1.76 | 1.85
CSC(=Nc1c(C)nn(C)c1C)NC#N | -1.71 | .
O=C(O)c1ccc2c(c1)OCCOCCOc1cc(C(=O)O)ccc1OCCOCCO2 | -1.57 | .
Cc1cc(N2CCOCC2)n2nc(-c3ccccc3C)nc2n1 | -1.71 | 0.63
CC1CC(C)CN(S(=O)(=O)N2CCCC(C(=O)NC3CCCCC3)C2)C1 (stereo not drawn) | . | 2.02
Cc1c(C(=O)N2CCCC2)c(S(=O)(=O)NC2CCCC2)c(C)n1C | . | -0.18
O=[N+]([O-])c1cnc2n1CC(CSc1nc(-c3ccccc3)cc(C(F)(F)F)n1)O2 (stereo not drawn) | -0.83 | 2.11
COc1ccc(OC)c(NC(=O)c2cnc3ccc(C)cn3c2=O)c1 | -2.5 | 1.54
CCOC(=O)N1CCC(NS(=O)(=O)c2c(C)noc2C)CC1 | -2.83 | .
CSc1ccc(C2CC(=O)N3CN(c4ccc(C)cc4)CSC3=C2C#N)cc1 (stereo not drawn) | 5.48* | -3.11
O=c1c(Cl)c(N2CCN(c3ccccn3)CC2)cnn1-c1nc2ccccc2o1 | -0.33 | 0.96

The list goes on:
SMILES | CDC25B-CDK2 inh | TAR Tat displ
CCN1CCN(C(c2cccs2)C(C)NC(=O)c2cccs2)CC1 (stereo not drawn) | -0.56 | .
CCOC(=O)C1CCN(c2c(N3CCN(c4ccccc4)CC3)c(=O)c2=O)CC1 | -1.73 | -0.71
COc1ccc(-c2cc(C)no2)cc1S(=O)(=O)NCc1ccc(C)o1 | . | 1.49
Cc1nc2ncnn2c(N2CCN(c3ccc(F)cc3)CC2)c1C | . | 0.86
O=C(O)CSc1nc(-c2ccccc2)nc2c1oc1ccccc12 | 0.77 | 0.84
O=c1[nH]c2cc3c(cc2c(=O)n1CCCc1nc(-c2ccccc2Cl)no1)OCO3 | . | -0.21
Cc1nnc(C)n1/N=C/c1ccc(-c2ccccc2)cc1 | -0.96 | .
CN1C(=O)c2ccccc2Sc2ccc(NC(=O)N3CCN(c4ccccc4F)CC3)cc21 | -1.08 | 0.12
Cc1ccc2ncc(C(=O)Nc3nccs3)c(=O)n2c1 | -1.42 | 0.16
Clc1ccc(N2CCN(c3ncnc4c3nc3n4CCCCC3)CC2)cc1 | . | 0.7
CCOc1ccc(S(=O)(=O)Nc2cccc(-c3ccc(S(C)(=O)=O)nn3)c2)c(OCC)c1 | . | 0.58
CCN(CCCNc1c(-c2ccccc2)c(=O)c1=O)Cc1ccccc1 | . | 1.06
CCOC(=O)CSc1nc(-c2ccc(F)cc2)nc2c1c(=O)n(C)c(=O)n2C | -1.52 | .
CCC(=O)n1/c(=N/C(=N)N)nc(C)c2ccc(C)cc21 | 9.03* | .
Cc1n[nH]c(C)c1CCc1nc2c3ccccc3nc(NCCc3ccccc3)n2n1 | 2.54 | 0.3
CCC(C(=O)NCc1ccccn1)n1c2ccccc2c2nc(=O)cc(C)n21 (stereo not drawn) | -2.13 | -0.62
CCOc1ccc(C(=O)OCc2cc(=O)n3ccsc3n2)cc1 | . | -0.89
CC(C)CNC(=O)NC1=C(C#N)C(C)(C)Cc2ccccc21 | -3.06 | 0.48
COc1cc(Cn2c(-c3ccc(O)c(OC)c3)nc3ccccc32)ccc1O | -0.3 | 0.35
CCCS(=O)(=O)N1CCN(c2cc(N3CCN(C)CC3)nc(C)n2)CC1 | -2.84 | 0.74
O=C1C(=O)N(Cc2cccnc2)C(c2ccc(O)cc2)/C1=C(\O)c1ccc(F)cc1 (stereo not drawn) | -2.49 | 0.73
Cc1cc(C(=O)O/N=C(\N)c2ccc([N+](=O)[O-])o2)nn1-c1c(Cl)cc(Cl)cc1Cl | -0.86 | .
COc1ccc(-c2nc(SCC(=O)NC(C)(C)C)n3[nH]c(=O)cc3n2)cc1 | . | 1.51
CS(=O)(=O)Nc1cccc(C2=NN(C(=O)CCCC(=O)O)C(c3ccccc3F)C2)c1 (stereo not drawn) | -2.92 | 1.93
Cc1cc(C)n(CC(O)CN2C(=O)NC(C)(C)C2=O)n1 (stereo not drawn) | -0.17 | .

Ordered by number of heavy atoms (ascending): part of the list above.
SMILES | CDC25B-CDK2 inh | TAR Tat displ
Cc1cc(C)n(CC(O)CN2C(=O)NC(C)(C)C2=O)n1 (stereo not drawn) | -0.17 | .
Cc1nnc(C)n1/N=C/c1ccc(-c2ccccc2)cc1 | -0.96 | .
CC(C)CNC(=O)NC1=C(C#N)C(C)(C)Cc2ccccc21 | -3.06 | 0.48
CCOc1ccc(C(=O)OCc2cc(=O)n3ccsc3n2)cc1 | . | -0.89
Cc1nc2ncnn2c(N2CCN(c3ccc(F)cc3)CC2)c1C | . | 0.86
COc1ccc(-c2cc(C)no2)cc1S(=O)(=O)NCc1ccc(C)o1 | . | 1.49
CCN(CCCNc1c(-c2ccccc2)c(=O)c1=O)Cc1ccccc1 | . | 1.06
Clc1ccc(N2CCN(c3ncnc4c3nc3n4CCCCC3)CC2)cc1 | . | 0.7
CCOC(=O)CSc1nc(-c2ccc(F)cc2)nc2c1c(=O)n(C)c(=O)n2C | -1.52 | .
Cc1cc(C(=O)O/N=C(\N)c2ccc([N+](=O)[O-])o2)nn1-c1c(Cl)cc(Cl)cc1Cl | -0.86 | .
O=c1[nH]c2cc3c(cc2c(=O)n1CCCc1nc(-c2ccccc2Cl)no1)OCO3 | . | -0.21
Cc1n[nH]c(C)c1CCc1nc2c3ccccc3nc(NCCc3ccccc3)n2n1 | 2.54 | 0.3
CCOc1ccc(S(=O)(=O)Nc2cccc(-c3ccc(S(C)(=O)=O)nn3)c2)c(OCC)c1 | . | 0.58
CN1C(=O)c2ccccc2Sc2ccc(NC(=O)N3CCN(c4ccccc4F)CC3)cc21 | -1.08 | 0.12

More compounds follow:
SMILES | CDC25B-CDK2 inh | TAR Tat displ
CC1(C(=O)NC2CCCC2)Cn2c(cc3ccccc32)C(=O)N1Cc1ccccn1 (stereo not drawn) | . | 0.37
CC(C)=CCC[C@](C)(O)C1CC=C(C)CC1 (stereo partly drawn) | . | 1.03
O=C(O)CCc1ccc(-c2ccc(Cl)cc2)n1CCC(=O)O | -0.84 | .
O=C(Nc1ccc(Cl)cc1)c1nn(-c2ccccc2)ccc1=O | -0.1 | 0.14
COCCNS(=O)(=O)c1ccc2c(c1)CC(C)N2C(C)=O (stereo not drawn) | . | 0.16
Cn1c(N2CCN(C(=O)C3CC(=O)N(CCc4ccccc4)C3)CC2)cc(=O)n(C)c1=O (stereo not drawn) | . | 0.87
O=C(O)CCC(=O)N1CCOc2ccc(Cl)cc21 | -0.02 | 0.45
CCC(C)NC(=O)c1c(O)c2cccc3c2n(c1=O)CCC3 (stereo not drawn) | . | 1
O=C(CSC1=Nc2ccccc2N=C(c2ccccc2)C1)Nc1ccc2c(c1)OCCO2 | -0.86 | -0.07
